Bioassay records: PubChem BioAssay, ICCB-Longwood Screening Facility, Harvard Medical School
PV pol inh: poliovirus RNA polymerase inhibition | actives 0.66% (n = 150,000) | % elongation, % (compound at 16.7 µg/mL) | poliovirus polymerase elongation, fluorescence polarization; hits give low values; in the data active means % elongation below about 90%; further: some results filed as inactive read as strong as hits
MenB inh: inhibitors of Mycobacterium tuberculosis MenB enzyme; P9WNP5; MenB enzyme assay, absorbance read-out; some hits fall short of the stated cut; inhibition, %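 (about 12 µg/mL by stock and volumes)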; actives 0.43% (n = 100,000);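 active means mean of two replicates above 30%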;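 further: 0% = no compound and 100% = wells with inactive enzyme; the first replicate is given; strong numbers were not always called active; inactives centre near -10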
Target sequence (P9WNP5 whole entry, looked up): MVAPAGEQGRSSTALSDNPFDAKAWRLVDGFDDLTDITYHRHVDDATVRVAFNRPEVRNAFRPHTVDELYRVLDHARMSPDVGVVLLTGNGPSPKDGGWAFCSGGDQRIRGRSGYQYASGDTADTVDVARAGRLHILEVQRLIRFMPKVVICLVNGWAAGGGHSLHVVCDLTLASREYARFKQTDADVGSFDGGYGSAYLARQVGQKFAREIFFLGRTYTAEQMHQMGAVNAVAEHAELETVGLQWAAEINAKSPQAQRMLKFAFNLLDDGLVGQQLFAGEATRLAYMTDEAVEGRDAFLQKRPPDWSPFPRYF
MbtI inh: blocks the Mycobacterium tuberculosis siderophore enzyme MbtI; inhibition, %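 (about 17 µg/mL by stock and volumes)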; P9WFX0; AID 493033; actives 0.89% (n = 100,000); purified MbtI enzyme, fluorescence intensity read-out;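 active means above 50% in both replicates, above 80% if mildly self-fluorescent; inactive means the rest, strongly fluorescent compounds included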;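 further: 0% = mean of negative and 100% = mean of positive controls; one replicate is shown; some compounds called inactive have numbers as strong as hits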
Target sequence (P9WFX0 whole entry, looked up): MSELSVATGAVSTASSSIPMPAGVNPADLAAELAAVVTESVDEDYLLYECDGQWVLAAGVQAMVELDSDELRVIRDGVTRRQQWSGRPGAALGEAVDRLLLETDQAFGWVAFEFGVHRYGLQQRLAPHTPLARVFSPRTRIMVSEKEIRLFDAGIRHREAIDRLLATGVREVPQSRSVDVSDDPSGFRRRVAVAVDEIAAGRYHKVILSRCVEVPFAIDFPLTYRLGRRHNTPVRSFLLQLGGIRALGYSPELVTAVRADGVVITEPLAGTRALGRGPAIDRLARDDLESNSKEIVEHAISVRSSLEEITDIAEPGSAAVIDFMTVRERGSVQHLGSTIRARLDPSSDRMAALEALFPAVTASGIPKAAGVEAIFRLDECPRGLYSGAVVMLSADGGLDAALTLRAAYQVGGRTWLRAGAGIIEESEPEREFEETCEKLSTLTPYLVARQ
PV pol inh intensity: also measured in PV pol inh; calls as there; % elongation; measured here: total intensity read-out; formula for this scale not given here;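 total fluorescence in place of polarization; lower means less elongation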
The depositor's hits bear a star; i = inactive; x = no result given.

Results follow in this order: PV pol inh, PV pol inh intensity, MenB inh, MbtI inh
> Cc1cc2c3c(c1)c(-c1ccccc1)c(C)n3CCC2
  99, 104, -7, 103
> COc1ccc(Nc2cc(C(=O)NCCc3ccccc3)c3ccccc3n2)cc1
  100, 97, -22, -7
> CNCC(O)Cn1c(C(F)(F)F)nc2ccccc21 (stereo not given)
  106, 102, 7, x
> Cc1ccccc1OCc1nnc(SCC(=O)Nc2ccnn2C2CCCC2)n1-c1ccccc1
  101, 109, -20, -12
> CCCC1c2ccc(C)n2CCN1C(=O)NCc1ccccc1 (stereo not given)
  106, 106, -9, 49
> Cc1nn(C)c2sc(C(=O)NC3CCCCNC3=O)cc12 (stereo not given)
  100, 100, -7, 4
> COC(=O)CCCc1nc2ccccc2s1
  99, 102, -6, 0
> CC(C)CNc1nc(SCC(N)=O)nc(N2CCOCC2)n1
  104, 103, -12, -3
> CC(C)(C)OC(=O)Nc1ccccc1C(=O)O
  103, 105, -2, 112
> CC(C)c1ccc(NC(=O)N2CCCC2C(=O)Nc2ccc(-n3cnnn3)cc2)cc1 (stereo not given)
  102, 105, -11, -4
> OC1(c2ccc(OC(F)F)cc2)CSC(=Nc2cccnc2)N1C1CC1 (stereo not given)
  102, 108, -17, -7
> Cc1cc(C)c2ccc(/C=N/O)nc2c1O
  101, 94, -18, 2
> CN(Cc1ccccc1)c1csc2ccccc2c1=O
  102, 103, -55, -10
> NNC(=O)c1cc(-c2ccccc2)nn1-c1ccccc1
  95, 93, -7, x
> O=C(COCc1cc(-c2ccc(F)cc2)on1)NCCC1=CCCCC1
  103, 104, -32, -7
> CC(C)S(=O)(=O)C1=NSC2=NC(=O)/C(=C\c3ccco3)C(=N)N21
  79*, 49*, -63, 15
> CCOc1cc(/C=C2/SC(=S)N(C(CC)C(=O)O)C2=O)ccc1O (stereo not given)
  109, 103, -386, -7
> CCN(C(=O)CSC1CCCC1)C1CCCCC1
  103, 97, x, 0
> CCCc1c(C(=O)OCC)sc(N)c1C#N
  100, 103, -18, 17
> O=c1oc2cc(O)ccc2cc1-c1nc(-c2ccccc2F)no1
  90, 184, -192, i
> O=c1c2ccccc2[nH]c2ncccc12
  102, 97, -22, 105
> O=S1(=O)N=C(O)c2ccccc21
  99, 100, 5, 9
> C/C(=N\OCC(=O)N1c2ccccc2CC1C)c1ccc(S(=O)(=O)N(C)C)cc1 (stereo not given)
  103, 104, -12, 0
> CCCN(CCC)S(=O)(=O)c1cc2[nH]c(=O)c(=O)[nH]c2cc1C
  103, 107, -11, -101
> N#Cc1c2c(c(NCCN3CCCCC3)n3c1nc1ccccc13)CCC2
  104, 107, 10, 1
> COc1ccc(N2CCN(C(=O)c3ccccc3I)CC2)cc1
  101, 98, -3, -12
> CCCCN(C)C(=O)CN1C(=O)c2cccnc2Oc2ccc(C)cc21
  102, 103, -3, -24
> O=C(NCc1ccccc1C(F)(F)F)C1CCN(c2ncccn2)CC1
  102, 102, -13, 69
> CCn1c(SC)nnc1C1CCN(CC(=O)N(c2ccccc2)c2ccccc2)CC1
  103, 102, -29, -7
> c1ccc2c(c1)[nH]c1nc(NN=C3CCC(=NNc4nnc5c(n4)[nH]c4ccccc45)CC3)nnc12
  104, 102, -56, -5

The final 2 records of the part above lead into the next.
Results follow in this order: PV pol inh, PV pol inh intensity, MenB inh, MbtI inh
> CCn1c(SC)nnc1C1CCN(CC(=O)N(c2ccccc2)c2ccccc2)CC1
  103, 102, -29, -7
> c1ccc2c(c1)[nH]c1nc(NN=C3CCC(=NNc4nnc5c(n4)[nH]c4ccccc45)CC3)nnc12
  104, 102, -56, -5
> C=CCn1c(-c2cccs2)nc2ccccc21
  103, 107, -18, x
> COC(=O)CC1C(=O)NCCN1C(=O)CSc1nnc(Nc2ccc(OC)cc2)s1 (stereo not given)
  102, 101, -7, 13
> CCCCCCCCCCCCCCCC(=O)N[C@@H](COP(=O)(O)O)C(=O)O
  100, 101, x, -4
> CCN1C(=O)NC(c2ccc(Cl)cc2)C(C(=O)OC)=C1C (stereo not given)
  100, 99, 5, 4
> N#Cc1c(NC(=O)CCn2cnc3ccccc3c2=O)oc(-c2ccccc2)c1-c1ccccc1
  100, 100, -32, -23
> CCCNC(=O)Cn1cnc2sc(C(=O)N3CCC(Cc4ccccc4)CC3)c(C)c2c1=O
  101, 105, -18, -6
> CCC(C)C(=O)NCCc1ccccc1 (stereo not given)
  100, 107, -8, x
> Cc1ccc(NC(=O)CN(C)C(=O)CSc2nc3ccccc3c(=O)n2CCO)cc1
  101, 113, -18, 5
> O=c1oc2c(-c3cc(C(F)(F)F)ccc3Cl)cc(O)cc2s1
  102, 101, -6, -2
> CSc1ccccc1NC(=O)c1ccccc1
  103, 107, 7, -5
> CS/C(N)=N\N=C(/C)c1cc2ccccc2o1
  102, 100, 0, 18
> O=C(O)c1ccccc1C(=O)N1CCN(Cc2ccccc2)CC1
  102, 108, x, -14
> CC1(C)CC2(CC(C)(C)NC(=O)N2)NC(=O)N1
  99, 100, 31, -5
> Cc1ccsc1/C=N/c1sc2c(c1C#N)CCCC2
  100, 102, 0, -6
> N#Cc1cc2c(nc1S(=O)(=O)Cc1ccccc1)CCCC2
  102, 98, -52, 4
> Cc1cccc(NC(=O)C(Cc2ccccc2)N2Cc3ccccc3C2=O)n1 (stereo not given)
  102, 102, 2, -19
> O=C(C1CC2C=CC1C2)N1CCCc2ccccc21 (stereo not given)
  101, 109, -18, -16
> CNCC(=O)N1CCCC1
  107, 104, -24, 2
> CSc1ccc(C(=O)Nc2sccc2C#N)cc1
  105, 108, -26, 62
> CCOC(=O)c1noc2ncnc(N(Cc3ccco3)C3CCN(C)CC3)c12
  101, 101, -9, 11
> O=S1(=O)N(Cc2ccccc2)CCCN1Cc1ccc(Cl)cc1
  103, 102, 9, 2
> CNc1ccc(C2(O)C(=O)c3ccccc3C2=O)cc1
  106, 105, x, -23
> O=C1/C(=C/c2ccc(Cl)cc2)SC(=Nc2ccccc2)N1N1CCOCC1
  104, 105, -25, -1
> COc1ccc(-c2cc(O)c3c(C)oc(C)c3c(=O)c2)cc1
  96, 118, -63, 32
> CCOC(=O)C1=C[C@@H](OC(CC)CC)[C@H](NC(C)=O)[C@@H](N)C1
  100, 101, -6, -14
> CC(C)N(CCc1ccncc1)C(=O)Nc1ccc(F)cc1
  102, 107, 3, -11
> O=C(CN1C(=O)C2CC=CCC2C1=O)NCc1ccccc1F (stereo not given)
  108, 111, -7, -16
> Cc1noc(C)c1CSc1ccc(S(=O)(=O)N(C)C)cn1
  104, 105, -16, 19
> O=C(Nc1cccc(F)c1)c1ccccn1
  102, 98, -28, 3
> Fc1ccc(CSc2nncn2NCc2ccc3c(c2)OCO3)cc1
  98, 101, -8, -9

Entries of single compounds from above.
Fc1ccc(CSc2nncn2NCc2ccc3c(c2)OCO3)cc1 is listed as PV pol inh = 98; PV pol inh intensity = 101; MenB inh = -8; MbtI inh = -9
CCOC(=O)c1noc2ncnc(N(Cc3ccco3)C3CCN(C)CC3)c12 is listed as PV pol inh = 101; PV pol inh intensity = 101; MenB inh = -9; MbtI inh = 11

(continued)
Results follow in this order: PV pol inh, PV pol inh intensity, MenB inh, MbtI inh
> CCOC(=O)c1cnc2cc(C)nn2c1-c1ccccc1
  105, 109, -7, x
> O=C(NC(c1ccccc1)c1ccccc1)C1COC2C=CC=CC2O1 (stereo not given)
  103, 113, -28, x
> COC(=O)c1ccccc1NS(=O)(=O)c1c(C)nc2sccn2c1=O
  103, 103, -9, -5
> CC(C)(C)C(=O)Nc1oc(-c2ccccc2)c(-c2ccccc2)c1C#N
  100, 100, -26, 108
> COc1cccc(NC(=O)CSc2nnnn2C(C)C)c1
  103, 101, -2, -3
> Cn1nc(C(=O)NCCCN2CCN(c3ccccc3)CC2)c2c1-c1ccccc1OC2
  102, 104, 1, -3
> Cc1occc1-c1nnc(SCc2ccc(C(C)(C)C)cc2)n1N
  95, 93, -36, -6
> O=C(N/N=C/c1ccncc1)c1ccc(Cn2nnc(-c3ccccc3)n2)cc1
  104, 100, 16, 8
> O=C(/C=C1\Sc2ccccc2NC1=O)NCc1ccc2c(c1)OCO2
  99, 97, 9, 7
> COc1ccc2cc(OC)ccc2c1
  101, 104, -21, -51
> CC1CN(Cc2nnc(-c3ccccc3)o2)CC(C)O1 (stereo not given)
  102, 99, 13, 18
> CCc1cccc(CC)c1NC(=O)COC(=O)c1ccncc1
  103, 106, x, -10
> COc1ccc(NC(=C(C#N)C#N)C(F)(F)C(F)(F)F)cc1
  102, 102, -13, -18
> Nc1nc(-c2ccccc2)cc(-c2ccccc2)n1
  99, 97, 5, 15
> C(/C=C/c1ccc2c(c1)OCO2)=Nc1ccc(N2CCOCC2)cc1
  101, 104, -1, x
> COc1ccc(Cc2c(O)nc(N)[nH]c2=O)cc1
  103, 105, -29, -6
> Cc1cc(C)c(S(=O)(=O)NCC(=O)NC2CC2)c(C)c1
  101, 100, 4, -6
> CCOC(=O)c1c(NC(=O)CN2C(=O)CCSc3ccccc32)sc2c1CCCC2
  103, 104, -28, 20
> CC(=O)Nc1ccc(C(=O)CSc2nnc3scc(-c4ccccc4)n23)cc1
  101, 109, -20, -7
> COCCNC(=O)C1CCCN(S(=O)(=O)c2ccc(OC)c(OC)c2)C1 (stereo not given)
  100, 97, -21, -4
> Cc1oc2cc3oc(=O)c(CC(=O)NCCc4ccccc4)c(C)c3cc2c1C
  103, 102, -7, 24
> Cc1cc(C)c(C(=O)Nc2cccc3c(=O)[nH][nH]c(=O)c23)c(C)c1
  98, 98, -8, 69
> Cc1[nH]c2ccc(C(=O)NC3CC3)cc2c1C
  98, 102, 7, -54
> Nc1c(C(=O)Nc2ccc3ccccc3c2)sc2nc3c(cc12)CCC3
  104, 100, -5, -7
> O=C(CNS(=O)(=O)c1cccs1)NC1CCCc2ccccc21 (stereo not given)
  102, 107, 5, 1
> CC1=C(c2cccc(Cl)c2)S(=O)(=O)NC1=O
  101, 99, -2, -4
> COc1ccc(CCNC(=O)Cn2nnc(C(=O)Nc3cccc(C)c3C)c2N)cc1OC
  99, 103, -2, 1
> CC(=O)OC1=CC=CNC1=C(C#N)C#N
  101, 106, -18, -96
> Cc1cc(NC(=O)COC(=O)c2cc(-c3ccco3)nc3ccccc23)n(-c2ccccc2)n1
  104, 111, -32, 102
> CC(C)(CN1CCCCCC1)NS(=O)(=O)c1ccccc1
  102, 96, x, -5
> COc1cc(NC(=S)N(C)CCC#N)c(OC)cc1Cl
  104, 98, 14, 6
> Nc1cccnc1Nc1ccccc1
  85, 128, -33, 15
> COC(=O)c1cc(-c2cccc(OC)c2)c2c(=O)[nH]c(=O)n(C)c2n1
  102, 101, -8, 87
> CC(N)CCc1ccco1 (stereo not given)
  103, 100, -40, -1
> O=C(COC(=O)C1CCCCC1)Nc1ccc2c(c1)OCCO2
  99, 103, -15, 15
> O=C(CSc1ncccn1)NC(=O)NCc1ccccc1
  102, 109, -14, 5
> CC1CN(C2=NCCN2S(=O)(=O)c2ccc(Cl)cc2)CC(C)O1 (stereo not given)
  104, 109, -22, -4
> CCOC(=O)/C(C#N)=C/Nc1cc(C)no1
  101, 95, -9, 17
> O=C(/C=C/c1ccccc1)Nc1ccc2[nH]c(=O)[nH]c2c1
  105, 100, -57, x
> CC1CCCC(C)N1Cc1c(O)ccc2c(-c3ccccc3)cc(=O)oc12 (stereo not given)
  104, 102, -4, -4
> Oc1ccc(-c2cn3c(n2)SCC3)cc1
  98, 103, x, 6
> Cc1oc(-c2ccc(Cl)cc2)cc1C(=O)O/N=C(\N)Cc1nc2cccnc2n1C1CC1
  103, 106, -18, 28
> C=CCNC(=O)CSc1nc(=O)n2cc(C)ccc2n1
  98, 100, -1, 33
> Oc1c(C(c2ccco2)N2CCOCC2)sc2ncnn12 (stereo not given)
  107, 97, -30, 23
> Nc1c2c(=O)[nH]c(O)cc2nn1-c1ccccc1
  110, 111, -10, 2
> COc1ccc(-c2nc3ccccc3o2)cc1
  100, 103, -51, i
> COc1ccc(CNC(=O)c2cnc(OC)cc2C(F)(F)F)c(OC)c1
  101, 103, 7, -26
> O=C(COc1ccc(Cl)cc1)NCCCN1CCN(c2ccccc2)CC1
  105, 105, -17, 4
> CC1CC1C(=O)OCC(=O)NC(c1ccccc1)c1ccccc1 (stereo not given)
  102, 98, x, -5
> C[N+](C)(C)[C@H]1C(O)O[C@@H]2C(O)CO[C@@H]21 (stereo not given in full)
  106, 103, -8, x
> CCCc1nnc2c3c4c(sc3ncn12)CCCC4
  100, 108, -2, -11
> CCC(=O)N1CCCc2cc(S(=O)(=O)N3CCN(C4CCCCC4)CC3)ccc21
  101, 104, -19, 1
> COc1ccc(-n2c(SCC(=O)NC3CC3)nc3ccccc32)cc1
  107, 105, 10, 14
> O=C(CSc1ncc(-c2ccccc2)n1-c1ccccc1)NCCN1C(=O)CSC1=O
  99, 104, -21, 3
> Cc1sc(NC(=O)C2CC2)c(C#N)c1C
  95, 92, -50, 90*
> Cc1cc(=S)[nH]c2ccccc12
  104, 99, -40, 61*
> O=c1c2c3c(sc2nnn1Cc1ccccc1)CCCC3
  100, 102, 1, -2
> COc1cc(C(CC(=O)NCCN2CCOCC2)N2Cc3ccccc3C2=O)cc(OC)c1OC (stereo not given)
  106, 102, -25, -16
> O=c1[nH]c(Nc2nc3ccccc3o2)nc(O)c1Cc1ccccc1
  95, 100, -17, -17
> O=C1c2ccc(-c3nc4ccccc4c(=O)o3)cc2C(=O)N1c1ccc2c(c1)OCO2
  101, 104, -4, -17
> CCOc1cc(/C=C2\SC(=O)N(C)C2=O)cc(Cl)c1OCC
  104, 103, -5, -3
> COc1cccc(-n2ccnc2SCC(=O)Nc2ccc(N3CCN(C)CC3)cc2)c1
  94, 86, -5, -6
